Screening results deposited in PubChem by Fisher Drug Discovery Resource Center.
NPYLR7 ag – mosquito NPYLR7 agonism | HEK293T NPYLR7/Galpha15, GCaMP6s calcium fluorescence | activation, % at 10 µM | 0.15% of 270,000 active; in the data active = activation above about 40%;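 also: 0% = vehicle and 100% = reference agonist at the receptor; some compounds past the cut are filed as inactive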
NPYLR7 ag max-min – also measured in NPYLR7 ag; calls as there; activation, %; measured here: Max-Min RFU normalised activation; some inactives read as strong as hits;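 span of the calcium signal over five minutes; 0% = vehicle and 100% = native peptide agonist; compound fluorescence can raise it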
Starred values were filed as active, the others as inactive; & = joins results of further samples.

Values run as follows: NPYLR7 ag	NPYLR7 ag max-min
- Cc1ccccc1C(=O)Nc1cccc(-c2nc3cc(Cl)ccc3o2)c1C
    -4	-2
- COc1cccc(C(CN2CCN(C(=O)Nc3cccc(C)c3)CC2)OCc2ccc(C#N)cc2)c1 (stereo not drawn)
    -8	-8
- Clc1ccc2nc(-c3ccncc3)c(Nc3ccc4c(c3)OCO4)n2c1
    6	-3
- CCN1CCC(NC(=O)CN(C)Cc2ccc(Cl)cc2Cl)CC1
    -2	-2
- CCC1COC(C)CN1C(=O)c1ccc(Oc2ccccc2)cc1 (stereo not drawn)
    8	8
- Cc1cc(S(=O)(=O)N(C)C)cc(NCC(=O)NCC23CC4CC(CC(C4)C2)C3)c1C
    -14	-13
- COc1cc2c(cc1OC)CN(C1CCCN(Cc3ccoc3)C1)CC2 (stereo not drawn)
    4	2
- CC1CCC(NC(=O)OC(C)(C)C)(C(=O)OCCn2cccn2)CC1 (stereo not drawn)
    -1	-2
- Cc1cccc(Oc2c(CN(CC(O)CN3CCOCC3)CC3CC3)c(-c3ccccc3)nn2C)c1 (stereo not drawn)
    6	8
- CC(=O)Nc1ccc(Cl)c(C(=O)N2CCN(c3cc(C)ccn3)CC2)c1
    -1	1
- Cc1ccccc1-c1nc(CN(Cc2ccccc2)CC2CC2)c(C)o1
    -1	-3
- O=c1[nH]c2ccccc2n1CCCSc1nc2cc(S(=O)(=O)N3CCOCC3)ccc2o1
    -7	-7
- CC1(C(=O)Nc2ccc3c(c2)OCO3)CCN1C(=O)CCCc1cccs1 (stereo not drawn)
    10	7
- COc1cc(SC)ccc1C(=O)NC(c1ccccc1)C1CC1 (stereo not drawn)
    12	8
- O=C1C(C(c2ccc(Cl)cc2)N2CCC(O)CC2)Sc2nc(-c3ccco3)nn21 (stereo not drawn)
    -1	-3
- Cc1ccc2[nH]c3c(=O)n(CCC#N)ncc3c2c1
    -1	2
- CCOC(=O)c1ccc(-n2cc(O)c(C(=O)OC)n2)cc1
    -1	-7
- CCOCCSc1nc2c(cnn2CCO)c(=O)[nH]1
    2	-2
- COCCCN(CC(=O)N(Cc1ccc(F)cc1)Cc1sccc1C)C(=O)c1ccc(C)c([N+](=O)[O-])c1
    -6	-1
- COc1cccc2cc(C(N)=O)c(=Nc3ccccc3C(N)=O)oc12
    2	-1
- CCOC(=O)C1(CCc2ccccc2)CCN(C2Cc3ccccc3C2)CC1
    14	2
- O=C(CSc1nnnn1-c1ccccc1)N1CCOCC1
    -6	-9
- CCN(CC)c1cc(C(C)(C)C)nc(SCc2ccc(C(=O)NCCOC)cc2)n1
    -5	-4
- COc1ccc(Cl)cc1NC(=O)c1c(-c2ccccc2)noc1C
    1	-1
- Cn1cnnc1SCc1cc(=O)c(OCc2cccc([N+](=O)[O-])c2)co1
    4	3
- O=C(CCCN1C(=O)/C(=C/c2cccs2)SC1=S)Nc1nccs1
    -4	-6
- CCOC(=O)C1=C(C)NC(C)=C(C(=O)OCC)C1C(=O)OCC(=O)NC
    0	-5
- COc1ncc(-c2ccc3nccc(-c4ccnnc4)c3c2)cc1NS(=O)(=O)c1ccc(F)cc1F
    3	-4
- O=C1CCN(C(=O)c2ccno2)c2cc3c(cc2CN1CC1CC1)OCO3
    -6	2
- Cc1cc(C)c(-c2csc(NC(=O)CN3CSCC3=O)n2)c(C)c1
    24	14
- C[C@@H](NC(=O)C(=O)c1ccc(C2CCCCC2)cc1)C(C)(C)C
    -12	-20
- O=C(NCCc1ccc(Br)s1)c1cc(S(=O)(=O)N2CCCC2)c[nH]1
    -3	-5
- CCOC(=O)Cn1c(=O)c(F)cn(Cc2ccc(OC)c([N+](=O)[O-])c2)c1=O
    10	8
- O=C(CCC1CCCC1)N1CCN(c2ccc3nnnn3n2)CC1
    4	4
- CCOC(=O)c1cc(C(N)=O)n(C)n1
    14	11
- Cc1c(CC(=O)NC(C)Cn2cncn2)c2c(n1Cc1ccccc1)CCCC2=O (stereo not drawn)
    8	5
- O=C(Nc1cccc(-n2cccn2)c1)C1CCCN(C/C=C/c2ccccc2)C1 (stereo not drawn)
    5&2	-1&-1
- COc1cccc(Cc2nsc(Oc3ccc(CC(=O)NCc4ccc(F)cc4)cc3)n2)c1
    12	10
- CCC1=NOC(C(=O)N2CCN(c3ncccc3C)CC2)C1 (stereo not drawn)
    -4	-5
- O=C(CSc1ccccc1F)NNC(=O)c1cccc(S(=O)(=O)N2CCCC2)c1
    -2	-7
- COc1ccc(NC(=O)CSc2nccn3nc(-c4ccc(C)cc4)cc23)cc1
    -3	-7
- COCCNC(=O)c1nnn(-c2ccccc2)c1CSc1ncccn1
    -1	-6
- Cn1cccc1C(CNS(=O)(=O)c1cccs1)N1CCc2ccccc2C1 (stereo not drawn)
    4	3
- C=CCCC(O)CN(C)CC1CC(c2ccc(Cl)cc2)=NO1 (stereo not drawn)
    -1	0
- CCCNc1cc(=O)n(-c2ccc(F)cc2)nc1C(=O)OCC
    4	-1
- O=C(c1cnn(-c2ccccc2)c1-c1ccccc1)N1CCOCC1
    -5	1
- CCc1c(C)c(C(=O)N2CCCC2)n(Cc2cccc(F)c2)c1C
    2	10
- COc1ccc(S(=O)(=O)N2CCOCC2)cc1N1CCN(S(=O)(=O)c2cccc(C#N)c2)CC1
    4	2
- O=C(c1ccncc1)N(CCN1CCCCC1)CC1CCCN(C2CCCC2)C1 (stereo not drawn)
    2&1	-1&0
- C#CCn1c(=NC(=O)CCCS(=O)(=O)c2ccc(F)cc2)sc2cc3c(cc21)OCO3
    35	29
- COCCOCC(=O)N1CCN(Cc2cc(=O)c(OCc3ccc(SC)cc3)co2)CC1
    18	6
- Cc1cc(C)cc(CN2CCC(Cc3ccccc3)CC2)c1
    26	13
- CC(C)C(=O)N1CCNCC1
    0	0
- O=C1C2CC=CCC2C(=O)N1c1ccc(OCC(O)Cn2nnc3ccccc32)cc1 (stereo not drawn)
    -7	-10
- COC(=O)c1cc2c(=O)n(-c3nc4ccccc4s3)ccc2nc1C
    0	-3
- O=C(OCCOCCO)c1ccccc1Nc1cccc(C(F)(F)F)c1
    -3	-14
- CCCSc1nc2ccccc2[nH]1
    0	-3
- COc1cccc(CN(Cc2ccc3c(c2)OCO3)CC(C)O)c1 (stereo not drawn)
    1	4
- CC(C)c1nnc(NC(=O)CSc2nncn2C)s1
    10	4
- CCCCC#Cc1nc(N)c2ncn([C@@H]3O[C@H](C(=O)NCC)[C@@H](O)[C@H]3O)c2n1
    -5	-13

Going on with the list:
Values run as follows: NPYLR7 ag	NPYLR7 ag max-min
- COCCN(Cc1ccc(OS(C)(=O)=O)cc1)C(=O)c1ccccc1Cl
    21	15
- COc1ccc(-n2c(SCc3ccc(C#N)cc3)nnc2-c2ccccc2F)cc1
    16	28
- COc1cccc(C(=O)Nc2ccc(-c3c(C(C)C)[nH]n(-c4ccccc4)c3=O)cc2)c1
    29	27
- CC1(C)OCC(COc2c(F)c(N3CCOCC3)nc(F)c2Cl)O1 (stereo not drawn)
    -4	-7
- CC(C)(C)OC(=O)N1CCN(C(=O)COc2ccccc2Cl)CC1
    20	12
- NC(=O)CSc1nc2ncccc2c(=O)n1-c1ccccc1
    6	4
- O=C(CSCc1ccccc1)NCCOc1ccc(-c2ccc(F)cc2)nn1
    -3	-3
- Cc1cccc(NC(=O)CSC2=NS(=O)(=O)c3ccccc3N2)c1C
    10	6
- CCOc1ccc(-c2ccc(C(=O)N3CCc4cc(OC)c(OC)cc4C3c3ccccc3)s2)cc1 (stereo not drawn)
    12	6
- O=C(COC(=O)c1ccc(Cl)c(S(=O)(=O)N2CCCCC2)c1)NCc1ccc(F)cc1
    0	-1
- CN=c1scc(-c2cc(OC)ccc2OC)n1N=Cc1ccco1
    -2	-3
- CN=c1scc(-c2ccc(F)cc2)n1N=Cc1ccccc1Br
    -2	-5
- CN1CCC(N2CCC(CN(Cc3ccncc3)C(=O)/C=C/c3cccs3)CC2)CC1
    4	1
- COc1ccc(CCOC(=O)C2CCCCN2C(=O)c2ccc(C)s2)cc1OC (stereo not drawn)
    -5	-11
- CC1=NNc2nc3c(c(=O)n(Cc4cccc(C)c4)c(=O)n3C)n2C1C (stereo not drawn)
    8	2
- COC(=O)C=C1NC(=O)C(C)S1 (stereo not drawn)
    4	5
- O=C(CSc1nc2ccccc2[nH]1)N/N=C\c1c(O)ccc2ccccc12
    4	3
- O=C(Nc1nnc(SCCCOc2ccccc2)s1)c1cccc([N+](=O)[O-])c1
    20	18
- O=S(=O)(Nc1ccc2c(c1)OCO2)c1ccc(F)c(Cl)c1
    -1	-1
- COc1ccc(Cc2nnc(SCC(=O)Nc3ccc(OC)cc3)[nH]c2=O)cc1
    3	3
- Cc1nnc(NCc2ccccc2)n(N)c1=O
    -19	-23
- Cc1nnc(Sc2ncc(-c3ccc(Br)cc3)[nH]2)c(C#N)c1C
    2	-1
- C=CCc1ccc(OCC(=O)NC2(c3noc(C)n3)CCCCC2)c(OC)c1
    7	6
- C=CCNC(=S)Nc1ccc(F)cc1F
    15	14
- CC1=NN(C(=O)c2cccnc2)C(O)(c2ccccc2)C1 (stereo not drawn)
    2	0
- O=C(CN1CCN(c2cccc(Cl)c2)C1=O)N1CCN(Cc2ccccn2)CC1
    -2	-3
- NCc1cc(F)cc(Br)c1
    24	16
- CCCCN(C)S(=O)(=O)NCCN1CC(C)OC(C)C1 (stereo not drawn)
    4	3
- Cc1cc(C)cc(NC(=O)CSc2nc3c(c(=O)[nH]2)CN(CCc2ccccc2)CC3)c1
    -2	-7
- COc1ccc(CN2CCCn3cccc3C2c2ccoc2)c(OC)c1OC (stereo not drawn)
    27	36

3 compounds out of the list, ordered by length of the SMILES, descending.
Values run as follows: NPYLR7 ag	NPYLR7 ag max-min
- CCCCC#Cc1nc(N)c2ncn([C@@H]3O[C@H](C(=O)NCC)[C@@H](O)[C@H]3O)c2n1
    -5	-13
- COCCOCC(=O)N1CCN(Cc2cc(=O)c(OCc3ccc(SC)cc3)co2)CC1
    18	6
- CC1(C)OCC(COc2c(F)c(N3CCOCC3)nc(F)c2Cl)O1 (stereo not drawn)
    -4	-7

Additional results
Values run as follows: NPYLR7 ag	NPYLR7 ag max-min
- O=C(NCc1ccc2c(c1)CCCO2)c1cccc2ccnn12
    4	5
- CCN1CCN(Cc2cc(C(=O)N(C)Cc3ccco3)no2)CC1
    -1	11
- CCOc1ccc(-c2nc3cccc(C)n3c2NC2CCCCC2)cc1
    8&2	15&11
- CCN1CCN(C(c2ccccc2OC)c2c(O)cc(C)n(CC)c2=O)CC1 (stereo not drawn)
    14	6
- CCNc1ccnc(-c2ccc3c(c2)CCO3)n1
    -1	-1
- CCOC(=O)[C@H]1[C@@H](O)C(=O)N(C)C12CCN(C(=O)Nc1ccc3c(c1)OCO3)CC2
    22	18
- COc1ccc(N(C)S(=O)(=O)c2ccc(OC)c(N3CCN(C(=O)C(C)Oc4ccccc4)CC3)c2)cc1 (stereo not drawn)
    12	0
- C=CCS(=O)(=O)c1ccc(C(C)(C)C)cc1
    2	8
- CCOC(=O)N1CCN(C(=O)CCc2nnc(CCCc3ccccc3)o2)CC1
    3	-1
- CCOC(=O)C1=C(C)N=c2s/c(=C\c3ccc(C)cc3)c(=O)n2C1c1ccccc1F (stereo not drawn)
    -9	-13
- Cc1csc(SCc2cc(=O)c(OC(=O)COc3ccc(Cl)cc3)co2)n1
    -2	-6
- O=C(CNc1ccc(Br)cc1Cl)NC1CC1
    11	8
- CC(C)CC(NC(=O)c1cccc(F)c1F)C(=O)Nc1ccn[nH]1 (stereo not drawn)
    2	16
- Cc1ccc(NC(=O)c2cccn(OCc3ccc(F)cc3)c2=O)cc1Cl
    6	3
- Cc1ccc(S(=O)(=O)n2ccn(C(=O)CC3CCCC3)c2=O)cc1
    14	9
- CCn1c(SCc2ccccn2)nnc1-c1cn(C)nc1OC
    9	10
- Cc1ccsc1-c1nc(C(N)=O)c2[nH]c(=O)n(-c3ccccc3F)c2n1
    -7	-9
- COc1ccc(OC)c2sc(N(Cc3ccccn3)C(=O)C3CCCCC3)nc12
    1	-6
- CCOCCCn1c(C)c(C)n2c3c(=O)n(CCCc4ccccc4)c(=O)n(C)c3nc12
    4	0
- O=C1[C@H]2C[C@H]2C(=O)N1CCc1c[nH]c2ccccc12
    -9	-14
- Oc1ccc(-c2ccc(I)cc2)cc1
    -1	-1
- NC(=O)c1cc(-c2csc(-c3ccccc3)n2)ccc1O
    0	0
- CCCN1CCN(c2nc(C)nc3sc(C)cc23)CC1
    1	4
- CC(=O)OC1=C(C)C(c2ccccc2)N(C(C)=O)C(c2ccccc2)C1C (stereo not drawn)
    -1	-3
- CCOC(=O)C1(CCCc2ccccc2)CCN(C(=O)[C@@H]2C[C@H]2c2ccccc2)CC1
    8&12	-6&11
- CCOC(=O)CSc1nc2cc(S(=O)(=O)N3CCOCC3)ccc2n1CCCN1CCOCC1
    11	4
- CN(C(=O)NC1CC(=O)N(c2ccc3c(c2)OCCO3)C1)C1CCCCC1 (stereo not drawn)
    -6	-1
- CN(C)S(=O)(=O)N1CCCC(CCc2cccc(F)c2)C1 (stereo not drawn)
    12	0
- Cn1cc(C(=O)N2CCCC2)cc(NC(=O)C23CC4CC(CC(C4)C2)C3)c1=O
    -3	-5
- COCc1nc(-c2ccc(CN3CCN(C(=O)c4ccc(F)c(OC)c4)CC3)cc2)no1
    6	14
- Cc1ccc(C=C(C#N)C(=O)C(C)(C)C)o1
    -2	-3
- Cc1ccn2c(NC3CCCCC3)c(-c3ccccc3OC(=O)c3ccc4c(c3)OCO4)nc2c1
    8	14

Single records, from the list above. Screens in order: NPYLR7 ag	NPYLR7 ag max-min
`COc1ccc(N(C)S(=O)(=O)c2ccc(OC)c(N3CCN(C(=O)C(C)Oc4ccccc4)CC3)c2)cc1` (stereo not drawn) in the list: 12	0
`Cc1cc(C)c(-c2csc(NC(=O)CN3CSCC3=O)n2)c(C)c1` in the list: 24	14
`Cc1csc(SCc2cc(=O)c(OC(=O)COc3ccc(Cl)cc3)co2)n1` in the list: -2	-6
`CCCN1CCN(c2nc(C)nc3sc(C)cc23)CC1` in the list: 1	4
`COc1cccc2cc(C(N)=O)c(=Nc3ccccc3C(N)=O)oc12` in the list: 2	-1

Some of the compounds tested; rates above refer to the full screens.
